Rce1 inh = yeast Rce1p protease inhibitors, primary screen, biochemical, fluorescence, cell-free homogeneous | yeast membranes, quenched prenylated peptide cleavage fluorescence | CAAX prenyl protease 2 (Saccharomyces cerevisiae (strain ATCC 204508 / S288c)), Q03530 | calls only | actives 0.27% (n = 290,000) | AID 2563, 2010;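 active means fall in fluorescence gain of 50% or more versus controls, with final raw signal at or below 3038400; inconclusive means same 50% fall but final raw signal above 3038400; inactive means fall in fluorescence gain under 50%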;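 further: plate controls were neutral control wells for no effect and wells lacking membranes for full effect; tested at 10 µM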
Target sequence (Q03530 whole entry, looked up): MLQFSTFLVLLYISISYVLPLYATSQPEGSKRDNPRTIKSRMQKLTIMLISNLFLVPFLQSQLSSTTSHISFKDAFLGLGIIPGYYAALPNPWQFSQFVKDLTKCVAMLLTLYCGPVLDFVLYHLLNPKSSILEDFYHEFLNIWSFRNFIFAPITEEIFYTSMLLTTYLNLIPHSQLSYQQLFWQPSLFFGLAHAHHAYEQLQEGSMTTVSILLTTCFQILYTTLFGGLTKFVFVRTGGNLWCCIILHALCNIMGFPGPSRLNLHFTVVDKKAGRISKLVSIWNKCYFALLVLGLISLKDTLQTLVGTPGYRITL
eIF4H FP inh = human eIF4H binding inhibitors, primary screen, translation initiation inhibitor project, biochemical, uHTS, fluorescence polarization; AID 2012, 2009; inhibition, % at 35 µM; eIF4H fluorescence polarization binding assay; actives 0.94% (n = 290,000); Eukaryotic translation initiation factor 4H (Homo sapiens), Q15056;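 active means 50% or more with normal probe brightness, or confirmed in later tests; inconclusive means above 50% with abnormal brightness, or retests that disagree; inactive means below 50% or failed in later tests; about a fifth of its hits are not listed in these tables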;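 further: calls also rest on retests at 20 µM and on dose response follow-up; 0% = protein and probe with vehicle and 100% = probe without protein; strong numbers were not always called active; many hits fall short of the cut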
CSC inhib = cancer stem cell viability inhibitors, primary screen, luminescence | actives 1.1% (n = 300,000) | AID 2717, 2010 | inhibition, % at 7.5 µM | cancer stem cell-like cells viability;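 active means mean at 75% or more and at least half the replicates too; inconclusive means mean and replicates disagree; tested in HMLE shEcad cells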;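 further: 0% = median of negative and 100% = median of positive control wells; the first replicate is given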
PABP polyA inh = PABP poly(A) RNA binding inhibitors, primary screen, biochemical, fluorescence polarization, uHTS. Polyadenylate-binding protein 1 (Homo sapiens), P11940. inhibition, % at 35 µM. actives 1% (n = 290,000). AID 2014, 2009;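 active means 50% or more with normal probe brightness, or confirmed in later tests; inconclusive means above 50% with abnormal brightness, or retests that disagree; inactive means below 50% or failed in later tests; about a fifth of its hits are not listed in these tables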;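 further: calls also rest on retests at 20 µM and on dose response follow-up; controls were probe without protein and protein plus probe with vehicle; some compounds called inactive have numbers as strong as hits; many hits fall short of the cut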
Env fusion inh = inhibitors of HIV-1 Env-driven cell-cell fusion, primary screen, HeLa-JRFL effector, CEM21 target cells, luciferase; actives 1.1% (n = 360,000); inhibition, % at 12.3 µM;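 active means mean replicate inhibition score of at least 50 and every replicate individually at or above 50; inconclusive means only one of the two criteria met; inactive means mean below 50 and not all replicates reaching 50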;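 further: 0% = plate neutral controls and 100% = maraviroc near 300 nM; one replicate is shown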
Yeast UUG start = modulators of yeast start codon fidelity, primary screen, whole organism, S. cerevisiae, single point, plate reader | AID 602363, 2012 | actives 0.13% (n = 350,000) | activity score, % at 18.7 µM | S. cerevisiae UUG-firefly luciferase reporter, luminescence/redox ratio;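 active means replicate mean at a twofold rise or more, about +100% in these data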;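 further: firefly luciferase made from a UUG start codon reports start codon fidelity; reporter light over untreated wells divided by growth signal over untreated wells; some hits fall short of that in this replicate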
MT1-MMP act inh = blockers of MT1-MMP proenzyme processing, primary screen, HT1080 RFP-PRO-GFP cells, GFP/RFP fluorescence; GFP/RFP ratio fluorescence, overnight; percent of plate control window, DMSO zero; AID 651647, 2012; GFP/RFP ratio change, % at 20 µM; actives 0.061% (n = 360,000);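 active means GFP/RFP ratio change of at least 30% with cell ATP level not reduced by more than half and red fluorescence within 50% of control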; further: strong numbers were not always called active
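Material – HT1080 RFP-PRO-GFP cells · Control set – DMSO wells and RFP-L50D-GFP cells · Incubation – overnight cell settling, then overnight compound exposure, 37 °C, 5% CO2 · Compound dosing – single-point 20 µM compound, 1% DMSO · Read-out – GFP/RFP fluorescence ratio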
eIF4H FP inh retest = further read-out of eIF4H FP inh, marked with its call; inhibition, %; compound at 20 µM; confirmation average;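 mean of two retest wells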
PABP polyA inh retest = second read-out of PABP polyA inh, no call of its own (marks repeat the call); inhibition, %; compound at 20 µM; confirmation repeats;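 mean of two retest wells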
MT1-MMP act inh RFP = further read-out of MT1-MMP act inh, marked with its call; RFP signal change, %; measured here: RFP expression control read;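 0 = vehicle wells; hits needed this value within 50% of zero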
The depositor's hits bear a star; i = inactive; ? = inconclusive; / = not tested or not shown.

SMILES	Rce1 inh	eIF4H FP inh	CSC inhib	PABP polyA inh	Env fusion inh	Yeast UUG start	MT1-MMP act inh	MT1-MMP act inh RFP	others
O=C(O)/C=C/c1cnc[nH]1	i	-6.9	-5.9	1.0	/	-13.9	-1.7	0.7
COc1cccc(NC(=S)NC(=O)Cc2ccccc2)c1	i	/	-9.4	/	0.1	/	0.1	1.9
COc1ccc(-c2nc(C#N)c(N3CCN(C(=O)c4ccco4)CC3)o2)cc1OC	i	-2.7	-3.8	-2.5	11.4	-20.0	2.0	-0.8
O=S(=O)(CCSc1ccc(C(F)(F)F)cn1)c1ccccc1	i	-0.2	-4.2	4.3	-7.8	/	3.7	0.9
CC1(C(=O)NS(=O)(=O)c2ccc(F)cc2F)CCN1C(=O)Cc1ccccc1Cl (stereo unspecified)	/	/	/	/	15.3	-9.0	-0.5	4.9
CN1CCN(c2ccc(S(=O)(=O)N3CCCCC3)cc2NC(=O)Cc2ccc(Cl)cc2)CC1	i	-13.0	-0.7	-15.3	/	/	5.3	1.8
Cc1ccsc1/C=N/NC(=O)c1nnn(-c2nonc2N)c1-c1ccc2c(c1)OCO2	i	2.3	-7.5	0.3	8.6	-17.2	-2.5	-5.6
Cc1cccnc1Nc1nc(-c2ccc(O)cc2O)cs1	i	-2.9	29.0	3.7	/	-17.2	3.3	3.8
Cc1ccc(C(=O)c2sc3nsc(C)c3c2N)cc1	i	-0.1	-5.3	-2.4	/	/	-3.2	0.8
Cc1cc(=O)oc2cc(OCC(=O)NC3CCCCC3)ccc12	i	0.1	/	-0.4	-10.9	-7.1	1.4	2.7
COc1ccc(OC)c(-n2c(SCC(N)=O)nnc2-c2c[nH]c3ccccc23)c1	i	-9.9	-6.8	-3.9	-10.7	-22.3	-2.9	-1.4
CSc1nc(O)c(/C=C2\C=Nc3ccccc32)[nH]1	i	2.9	-14.4	-0.6	-48.4	/	1.7	3.6
Brc1ccc(/C=N/Nc2ncnc3c2cnn3Cc2ccccc2)cc1	i	-1.7	/	-4.3	/	/	0.1	2.4
CN(C)CCSc1nnc(-c2ccccc2)o1	i	-7.6	-3.9	14.7	-52.2	0.4	0.1	1.1
Cc1cccc(N(C(=O)c2ccco2)C(C(=O)NC2CCCC2)c2ccco2)c1C (stereo unspecified)	i	13.8	/	6.1	26.6	8.9	-3.5	-0.3
O=[N+]([O-])c1ccc2nc(-[n+]3c(-c4ccccc4)cc(-c4ccccc4)cc3-c3ccccc3)[nH]c2c1	i	1.9	31.5	48.1	/	/	-13.8	-34.5
Cc1onc(-c2c(Cl)cccc2Cl)c1C(=O)ONC(=O)c1cc(C(F)(F)F)cc(C(F)(F)F)c1	/	0.2	-7.1	-3.7	8.1	-14.6	-0.2	-2.3
COCc1cc(CN2CCN(CCc3ccccc3)C(CCO)C2)ccc1OC (stereo unspecified)	i	-9.3	-0.6	3.5	-4.2	-8.5	-1.6	0.8
O=C(O)CC(CC(=O)Nc1ccccc1C(=O)O)c1ccccc1 (stereo unspecified)	i	-6.6	-6.8	-3.1	-1.0	-13.8	-4.4	2.4
C[C@H](NC(=O)c1ccco1)C(=O)Nc1ccc(C#N)cc1	i	1.5	1.7	2.0	-20.9	-12.0	0.9	0.3
Cc1ccc(NC(=O)NCc2ccccn2)cc1	i	0.1	-13.8	-0.2	-2.5	-15.1	-0.9	-0.2
CCOCCCNC(=O)C(c1ccc(OC)cc1)N(Cc1cccs1)C(=O)c1ccccn1 (stereo unspecified)	i	-4.8	-0.4	-0.9	9.6	-18.9	0.1	0.6
CCCCCCCCc1nc(=S)[nH][nH]1	i	10.2	3.8	2.0	-28.3	-25.5	-2.3	0.8
CCNc1ccc(Br)cc(C(=O)/C=C/c2c(Cl)cccc2Cl)c1=O	i	86.0	-1.6	-20.4	/	-13.1	-29.9	-3.4	eIF4H FP inh retest=-1.6;PABP polyA inh retest=22.7
O=C(O)C1CCCCC1C(=O)NCCCN1CCOCC1 (stereo unspecified)	i	?	-4.9	?	/	-6.9	2.5	2.4
COC(=O)CNc1nc(-c2ccccc2F)nc2ccccc12	i	5.3	22.4	7.7	/	-10.5	0.1	-1.5
O=S(=O)(c1ccc2c(c1)OCCO2)N1CCN(Cc2ccc3c(c2)OCO3)CC1	i	0.9	-4.4	-4.6	-115.5	-8.1	-5.5	-0.6
CN(Cc1ccccc1)C(=O)c1cccc(NC(=O)Cc2ccc(NC(=O)C3CCN(C(=O)C4CCC4)CC3)cc2)c1	/	/	/	/	-21.6	1.7	3.6	-8.7
COc1ccc(CC(=O)Nc2ccc(-c3noc(-c4ccccc4OC)n3)cc2)cc1	i	-1.5	3.4	-12.6	-79.0	-10.4	2.9	-3.8
CCC(CC)C(=O)Nc1cccc(SC)c1	/	-6.8	-8.0	-9.1	-5.4	/	/	/
CCOC(=O)C1NN=C(C(=O)c2ccccc2)C1c1ccc(OC)cc1 (stereo unspecified)	i	5.1	-7.1	12.6	21.4	/	2.7	1.8
O=C(O)c1ccc2cccc(O)c2n1	i	12.1	5.7	9.4	-2.3	-14.9	1.4	1.8
Cn1c(NC(=O)c2ccco2)c(-c2ccccc2)c(=O)c2ccccc21	i	1.7	12.3	9.8	6.5	/	-2.5	2.3
CCO/N=C(\C)c1c(O)c(CC)c(-c2ccccc2)n(-c2ccccc2)c1=O	i	7.3	/	0.6	34.3	-14.7	3.2	2.7
CCN(CC)S(=O)(=O)c1ccc(N2CCCC2)c(NC(=O)C2CSC3(C)CCC(=O)N23)c1 (stereo unspecified)	i	/	-15.7	/	16.3	/	-1.0	-0.6
CCOC(=O)c1c(-c2ccccc2)csc1NC(=O)c1nn(CC)cc1Br	i	4.4	80.2*	-3.0	/	/	7.9	-2.7
COC(=O)c1ccc(NC(=S)NC(=O)c2c(Cl)cnn2C)cc1	i	-3.1	-6.8	-13.9	-4.0	/	6.1	7.6
COc1cc(/C=C/C(=O)OCC(=O)NCC2CCCCC2)ccc1O	/	/	8.2	/	/	0.4	2.1	1.1
CCOCCCNC(=O)C(c1ccccc1)N(Cc1cccs1)C(=O)c1ccccc1O (stereo unspecified)	i	-1.8	-9.9	-2.3	37.2	/	0.4	-0.9
COc1cnc(-c2ccccn2)nc1Oc1cccc(C(F)(F)F)c1	i	-2.5	-4.2	-5.6	-14.6	/	-1.5	-1.0

Reprinted at random: 3 compounds from above
SMILES	Rce1 inh	eIF4H FP inh	CSC inhib	PABP polyA inh	Env fusion inh	Yeast UUG start	MT1-MMP act inh	MT1-MMP act inh RFP	others
Cc1ccc(C(=O)c2sc3nsc(C)c3c2N)cc1	i	-0.1	-5.3	-2.4	/	/	-3.2	0.8
CCOC(=O)c1c(-c2ccccc2)csc1NC(=O)c1nn(CC)cc1Br	i	4.4	80.2*	-3.0	/	/	7.9	-2.7
O=C(O)CC(CC(=O)Nc1ccccc1C(=O)O)c1ccccc1 (stereo unspecified)	i	-6.6	-6.8	-3.1	-1.0	-13.8	-4.4	2.4

Remaining list, next part:
SMILES	Rce1 inh	eIF4H FP inh	CSC inhib	PABP polyA inh	Env fusion inh	Yeast UUG start	MT1-MMP act inh	MT1-MMP act inh RFP	others
Cc1ccccc1-n1ncc(C(C)NS(=O)(=O)c2ccccc2Cl)c1C (stereo unspecified)	i	-9.7	7.8	-5.0	18.6	-15.2	-2.0	-1.6
CC(C)(C)C(=O)Nc1cccc(C(=O)c2cccc(NC(=O)C(C)(C)C)c2)c1	i	4.0	-12.8	3.2	/	-28.1	5.5	-0.9
Cc1cc(C)cc(N2C(=O)CC(N3CCOCC3)C2=O)c1 (stereo unspecified)	i	1.6	-4.2	-9.9	/	4.7	-1.8	-2.0
CCOC(=O)C(=O)N(C)c1c(CC)nc2c(OCc3ccccc3)cccn12	/	/	/	/	-12.7	-20.5	0.8	2.7
CCOC(=O)N1CCC(NC(=O)c2ccc(N3CCC4(CC3)OCCO4)c([N+](=O)[O-])c2)CC1	i	-5.6	-11.4	-12.9	-3.3	-3.7	7.1	-5.5
O=C(NCc1ccco1)c1ccc(-c2ccc3nccn3c2)cc1	/	/	/	/	2.6	-6.9	-3.9	-1.8
CC(=O)Nc1ccc(S(=O)(=O)NNC(=O)c2cccc3ccccc23)cc1	i	-8.2	9.2	-2.9	/	-22.6	2.3	7.0
COc1ccc(CCN2C(=S)N(C)C(=O)C2CC(=O)Nc2ccc(OC)cc2)cc1 (stereo unspecified)	i	-16.5	96.8*	6.4	5.5	2.3	3.7	-4.5
CC(Sc1ccsc1[N+](=O)[O-])C(=O)NCc1ccco1 (stereo unspecified)	i	20.6	-5.3	7.4	-2.8	-8.2	0.9	4.8
COc1ccc(C(=O)N/C(=C/c2cccnc2)C(=O)N2CCOCC2)cc1OC	i	-1.4	-13.8	8.3	-2.2	-10.6	-0.2	3.6

Structural class: the compounds so far with a cyano group
SMILES	Rce1 inh	eIF4H FP inh	CSC inhib	PABP polyA inh	Env fusion inh	Yeast UUG start	MT1-MMP act inh	MT1-MMP act inh RFP	others
COc1ccc(-c2nc(C#N)c(N3CCN(C(=O)c4ccco4)CC3)o2)cc1OC	i	-2.7	-3.8	-2.5	11.4	-20.0	2.0	-0.8
C[C@H](NC(=O)c1ccco1)C(=O)Nc1ccc(C#N)cc1	i	1.5	1.7	2.0	-20.9	-12.0	0.9	0.3

(listing goes on)
SMILES	Rce1 inh	eIF4H FP inh	CSC inhib	PABP polyA inh	Env fusion inh	Yeast UUG start	MT1-MMP act inh	MT1-MMP act inh RFP	others
COc1ccc(COCC(O)CN(Cc2ccco2)Cc2ccccc2O)cc1 (stereo unspecified)	i	-2.1	5.7	-6.2	/	-1.8	-4.2	-0.3
C=CCn1nnnc1SCC(=O)Nc1cccc(C(F)(F)F)c1	i	2.9	-8.6	46.2	-19.2	-8.8	1.1	1.7
CCOC(=O)Cc1csc(NC(=O)CSc2nnc(-c3ccncc3)o2)n1	i	8.4	-4.7	-6.3	15.6	/	2.4	-1.0
CCOC(=O)c1sc(NC(=O)c2ccco2)nc1C	i	3.2	17.9	2.7	/	/	-0.4	1.9
Cc1cc2c(OCC(O)CN3CCCCC3)cccc2[nH]1 (stereo unspecified)	i	2.9	/	-11.8	9.5	/	-2.8	-0.3

An excerpt of the results above, as a working copy:
SMILES	Rce1 inh	eIF4H FP inh	CSC inhib	PABP polyA inh	Env fusion inh	Yeast UUG start	MT1-MMP act inh	MT1-MMP act inh RFP	others
CC(Sc1ccsc1[N+](=O)[O-])C(=O)NCc1ccco1 (stereo unspecified)	i	20.6	-5.3	7.4	-2.8	-8.2	0.9	4.8
COc1ccc(C(=O)N/C(=C/c2cccnc2)C(=O)N2CCOCC2)cc1OC	i	-1.4	-13.8	8.3	-2.2	-10.6	-0.2	3.6
COc1ccc(COCC(O)CN(Cc2ccco2)Cc2ccccc2O)cc1 (stereo unspecified)	i	-2.1	5.7	-6.2	/	-1.8	-4.2	-0.3
C=CCn1nnnc1SCC(=O)Nc1cccc(C(F)(F)F)c1	i	2.9	-8.6	46.2	-19.2	-8.8	1.1	1.7

Compound activity from PubChem.
